# 2A StopGo – lowers the luciferase signal of an FMDV 2A StopGo reporter | human cells with a luciferase reporter of 2A StopGo recoding; control for the full effect not named in the record | 410,000 compounds, 1.2% hits | Potency, µM (highest dose often 57.9 µM), for inactives: at the top dose signal change, negative = less light; active = well fitted falling curve with a large enough effect; inconclusive = small, poorly fitted or top-dose-only effect; inactive = no such curve, though single readings can be large or run the other way; tested in HEK293T cells; further: on the % scale 0 is the no-effect control and ±100 the full control effect; nearly all actives have a fitted effect of over 45% in size; luciferase light after 4 h
# SARS PLpro yeast – SARS-CoV PLP inhibition in yeast; S. cerevisiae expressing SARS-CoV PLpro, growth rescue; control for the full effect not named in the record; Potency, µM (doses to about 32.9 µM), without a hit: at the top dose activity, positive = growth rescue; 330,000 compounds, 0.19% hits; AID 485353; active means well fitted rising curve with a large enough effect; inconclusive means small, poorly fitted or top-dose-only effect; inactive means no such curve, though single readings can be large or run the other way; further: 0% is about no effect; nearly all actives have a fitted effect of over 55% in size; growth read by luminescence after 48 h
# RE007 growth inh – less growth of the S. pombe RE007 Vpr strain | S. pombe RE007 Vpr strain, BacTiter-Glo ATP luminescence, 24 h; control for the full effect not named in the record | Potency, µM (doses to about 92.2 µM), for the others: top-dose activity change, negative = less growth | 360,000 compounds, 0.21% hits | AID 651644; active = well fitted falling curve with a large enough effect; inconclusive = small, poorly fitted or top-dose-only effect; inactive = no such curve, though single readings can be large or run the other way;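 further: on the % scale 0 is the no-effect control and ±100 the full control effect; nearly all actives have a fitted effect of over 50% in size; the assay follows cell death caused by Vpr and the record does not say whether a fall means rescue or toxicity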
#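 Fission yeast strain RE007, carrying one chromosomally integrated HIV-1 vpr copy, was seeded at OD 0.01 in PMG+AL medium with 23 nL pinned compound. After 24 h at 30 °C and 99% humidity, viability was read by BacTiter-Glo luminescence.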
# Active calls of the source: *; ? = inconclusive; [ ] = remark or other dose. Potency means the concentration at half of the fitted maximal effect.
SMILES	2A StopGo	SARS PLpro yeast	RE007 growth inh
N#Cc1ccc(C(=O)Nc2cc(C3CC3)nn2-c2ccccc2)cc1	-17%	-4%	3%
CC(Sc1nnc(-c2ccccc2F)n1C1CC1)C(=O)NCc1ccco1 (stereo not drawn)	3%	-17%	2%
O=S(=O)(Nc1ccccc1N1CCOCC1)c1ccc(Cl)cc1	-10%	7%	3%
CCC1Nc2ncnc(N3CCCCC3)c2N(Cc2ccc(Br)cc2)C1=O (stereo not drawn)	-6%	2%	10%
CC(C)(C)OC(=O)N[C@@H](C(=O)OC(C)(C)C)c1ccccc1	-15%	-2%	4%
Cc1cccc(NC(=O)CNC(=O)Cc2ccc(S(=O)(=O)N3CCOCC3)s2)c1C	-3%	0%	14%
CCOC(=O)c1cc(NC(=O)c2ccccc2)c(=O)n2c1oc1ccccc12	-11%	0%	12%
COc1ccc(O)c(CNc2ccccc2F)c1	10%	-5%	0%
CCN(CC(=O)NCc1cccs1)CC(=O)Nc1c(Cl)ccc(C)c1Cl	-20%	-2%	-6%
Oc1oc(-c2ccc(Br)cc2)nc1C=Nc1ccc(Br)cn1	-3%	1%	9%
Cc1cc(C(=O)COC(=O)Cc2ccc(Br)cc2)c(C)n1C	-10%	15%	-23%
CCN(CC1COc2ccccc2O1)C(=O)CN1C(=O)NC(C)(c2ccccc2)C1=O (stereo not drawn)	-22%	2%	-3%
CCOc1ccc(NC(=O)CN(c2ccc(OCC)cc2)S(=O)(=O)c2c(C)[nH]c(=O)[nH]c2=O)cc1	4%	1%	14%
O=C(CCC(=O)c1cccs1)NNC(=O)c1ccc(Cl)cc1	-20%	2%	-11%
CC1CC(C)CN(c2ccc([N+](=O)[O-])nc2)C1 (stereo not drawn)	4%	-7%	-13%
O=C(c1ccc(=O)[nH]n1)N1CCN(S(=O)(=O)c2ccccc2F)CC1	0%	4%	13%
CNc1nnc(SCC(=O)c2cc(C)n(C3CC3)c2C)s1	66%[activator]	-11%	3%
O=C(Cc1cccc(NC(=O)C2CCN(C(=O)C3CC3)CC2)c1)Nc1cccc(C(=O)N2CCCC2)c1	-5%	-7%	1%
Cc1nn(Cc2ccccc2)c(C)c1CNC(=O)[C@H](C)N=C1NS(=O)(=O)c2ccccc21	-7%	9%	5%
COc1ccccc1CNC(=O)Cn1nc(C(F)(F)F)cc1C	-14%	-3%	5%
O=C(N/N=C/c1ccc(F)cc1)c1ccccc1	73%[activator]	-4%	-8%
C[C@@]12CCC3[C@@](CCC4[C@@]3(C)CCC[C@@]4(C)C(=O)N3CCOCC3)(CC1=O)C2 (stereo partly drawn)	-25%	1%	10%
CC(=O)c1ccc(S(=O)(=O)NCC2(N3CCOCC3)CCCCC2)cc1	20%	1%	-19%
COc1ccc(C)cc1NC(=O)NCc1ccccn1	-2%	0%	-13%
CCN(C(=O)CSc1nnc(-c2ccc(F)cc2)c2ccccc12)C1CCS(=O)(=O)C1 (stereo not drawn)	?	0%	1%
Cc1c(Cl)cccc1N1C(=O)CC(NNC(=O)c2ccc3c(c2)OCO3)C1=O (stereo not drawn)	-6%	0%	-2%
CCOC(=O)Cc1nn(Cc2ccc(Cl)cc2)c(=O)c2ccccc12	-15%	2%	-4%
Fc1cccc(CCN2CCNC[C@H]2Cc2cccc3ccccc23)c1	-9%	1%	-14%
CC(=O)c1ccccc1NC(=O)COC(=O)c1cc[n+]([O-])cc1	27%	6%	8%
C#CCCC(=O)c1ccccc1/C=[N+](\[O-])c1ccccc1	-10%	5%	2%
COc1ccc(N=Cc2cc(Cc3ccccc3Cl)cc([N+](=O)[O-])c2O)cc1OC	8%	2%	11%
CCOC(=O)N/N=C/c1ccc(Oc2ccccc2)cc1	59%[activator]	11%	-8%
CCN(CC)S(=O)(=O)c1ccc(C(C)NC(=O)C2CCCN2C(=O)c2cccs2)cc1 (stereo not drawn)	-6%	-12%	-1%
C/C(=N\OCC(=O)NC(C)C)c1cccs1	4%	1%	12%
O=C(Nc1cc(-c2ccccc2)nn1-c1c(Cl)cccc1Cl)c1ccc(F)cc1	-15%	0%	-7%
CC(=O)N1CCN(C(=O)COC(=O)c2oc3ccccc3c2C)CC1	1%	-27%	7%
COC(=O)C1=C(c2c(C)noc2C)C[C@@H]2CC[C@H]1N2C(=O)NC1CC1	-7%	-1%	-1%
CCC(CO)Oc1cc(NCc2ccc(F)cc2)c2ncn(C(C)C)c2c1 (stereo not drawn)	-7%	-3%	5%
O=C(COC(=O)C1CCC(=O)N1)Nc1cccc([N+](=O)[O-])c1 (stereo not drawn)	-4%	3%	16%
COC(=O)CCC[C@H]1CC2(C[C@H](CCCO[Si](C)(C)C(C)(C)C)N1C(=O)OC(C)(C)C)OCCO2	?	-1%	1%
O=C(CSc1nnc(NC2CC2)s1)NN1C(=O)NC2(CCCCC2)C1=O	-6%	0%	12%
Cc1ccc(NC(=O)Cn2cnc3c(OCc4ccccc4)ncnc32)cc1C	-23%	-8%	-7%
CCOc1ccc(NC(=O)c2ccccc2NC(=O)CNC2CCCC(C)C2C)cc1 (stereo not drawn)	-12%	-2%	-12%
Cc1ccc(OCCC(=O)OCC(=O)N2CC(=O)Nc3ccccc32)cc1	-23%	3%	6%
COc1cc(CCC(=O)Nc2ccc(S(=O)(=O)N3CCOCC3)cc2)cc(OC)c1OC	-15%	-16%	17%
C=CCONC(=O)Cc1ccccc1	66%[activator]	2%	4%
C[C@H](CO)N1C[C@H](C)[C@H](CN(C)C)Oc2ccc(NS(=O)(=O)c3ccc(F)cc3)cc2CC1=O	0%	11%	4%
Cc1ccc(Oc2ccc(NC(=O)C3=CC=CN4CCS(=O)(=O)N=C34)cc2)cc1	-1%	-1%	-9%
COCCN(C(=O)C1=COCCO1)c1c(N)n(CC(C)C)c(=O)[nH]c1=O	-20%	-13%	5%
Cc1ccccc1OCC(O)Cn1c(Br)nc2c1c(=O)[nH]c(=O)n2C (stereo not drawn)	-30%	1%	2%
Cc1cc2oc(C(=O)NCc3ccc(S(N)(=O)=O)cc3)c(C)c2cc1C	-19%	3%	1%
CCN1C(=O)[C@H]2[C@@H](c3ccc(-c4ccc(Cl)c(Cl)c4)cc3)N[C@@](C)(C(=O)OC)[C@H]2C1=O	?	-9%	0%
COc1ccccc1CNC(=O)COc1ccccc1C(=O)c1cnn(-c2ccccc2)c1	28%	-5%	-23%
CCOC(=O)N1CCN(C(=O)CCNS(=O)(=O)c2ccc(C)c(C)c2)CC1	13%	2%	-5%
Cc1ccc(Sc2ccc(NC(=O)CCN3C(=O)NC4(CCCC4)C3=O)cc2)c(C)c1	?	14%	-5%
CCOc1ccc(OCCNC(=O)C(NC(=O)c2c(F)cccc2F)C(C)C)cc1 (stereo not drawn)	-18%	-3%	3%
C[C@@H]1CN([C@H](C)CO)C(=O)c2cc(NC(=O)Nc3cccc4ccccc34)ccc2O[C@H]1CN(C)Cc1ccc(C(F)(F)F)cc1	0%	-4%	1%
CCC(C)Sc1cccc(-c2nc3ccc(C)cn3c2NC2CCCCC2)c1 (stereo not drawn)	?	-1%	?
Cn1c(SCC(=O)Nc2nccs2)nnc1-c1cccnc1	8%	-6%	-3%
Cc1ccc(S(=O)(=O)N2CCCN(C(C)c3nc4ccccc4c(=O)[nH]3)CC2)cc1 (stereo not drawn)	-12%	4%	2%

# More compounds follow.
SMILES	2A StopGo	SARS PLpro yeast	RE007 growth inh
O=C(CN1c2cccc3cccc(c23)S1(=O)=O)NCCc1ccc(F)cc1	?	7%	8%
Cc1ccc(Cn2cnc3c(cnn3C(C)(C)C)c2=O)cc1	25µM*	-3%	0%
CCN(CC)S(=O)(=O)c1ccc(NC(=O)c2ccc(OCC3CCCO3)cc2)cc1 (stereo not drawn)	28µM*	12%	-4%
COc1ccccc1NS(=O)(=O)c1ccc(C)c(C(=O)NCC2(N(C)C)CCCCC2)c1	0%	-4%	-3%
CCCC[C@@H]1C=C(C(=O)O)[C@H](c2ccc(CC)cc2)N1S(=O)(=O)c1ccc(C)cc1	-2%	-1%	20%
COc1ccc2[nH]c3c(c2c1)CCN1C(=O)C(CC(=O)NCC24CC5CC(CC(C5)C2)C4)C[C@H](C(=O)N2CCOCC2)[C@@]31C (stereo partly drawn)	-30%	-7%	7%
Cc1ccc(Cl)cc1NC(=O)C[n+]1ccc(Cc2ccc([N+](=O)[O-])cc2)cc1	-14%	2%	6%
COc1ccc(CNC(=O)COC(=O)CN2C(=O)NC3(CCCC3)C2=O)cc1	-7%	-5%	-3%
CCOc1ccc(NC(=O)C2CC(=O)N(Cc3ccco3)C2)cc1 (stereo not drawn)	24%	3%	-16%
Cc1ccc(C2CCN(C(=S)Nc3cccc(Cl)c3)C2)cc1 (stereo not drawn)	33%[activator]	-15%	-2%
O=C1Nc2ccccc2/C1=N/N=C/c1ccc(-c2ccc([N+](=O)[O-])cc2)o1	0%	7%	-16%
CC(=O)Nc1ccc(SCCN2CC[C@@H](O)CCC2=O)cc1	2%	2%	-3%
CC(C)(C)C(=O)NCc1ccc(C(=O)CSc2nnc(C3CC3)n2C2CC2)s1	-22%	-3%	7%
COC(=O)C1=C(c2ccc(C(C)=O)cc2)C[C@@H]2CC[C@H]1N2C(=O)N1CCCC1	-11%	-1%	-3%
Cc1cccnc1NC(=O)CSc1ccc2c(c1)OCCO2	29%	4%	-5%
CN(C)S(=O)(=O)c1cccc(C(=O)OCC(=O)Nc2ccc3c(c2)OCCO3)c1	-14%	7%	10%
Cc1nnc(SCC(=O)N(CC(C)C)c2c(N)n(CC(C)C)c(=O)[nH]c2=O)n1-c1ccccc1	2%	-6%	-1%
CC(C)c1ccc(NC(=O)NC2CC3CCC(C2)N3Cc2cccs2)cc1 (stereo not drawn)	-27%	0%	-13%
COc1cc(COCC(O)CN2CCN(Cc3ccccc3)CC2)cc(OC)c1OC (stereo not drawn)	10%	-3%	-11%
Oc1ccccc1-c1ccn[nH]1	2%	-1%	-13%
Cc1ccc(CONC(=O)c2cccc(C)c2)cc1	52%[activator]	2%	-8%
O=C(Cn1cc([N+](=O)[O-])ccc1=O)NC1CCCCC1	-14%	4%	-2%
Cc1ccc(C)c(OCC(=O)NCC2COc3ccccc3O2)c1 (stereo not drawn)	-17%	-8%	-11%
O=C(O)CCCN1C(=O)C2C3CC(C2C1=O)C1C(c2ccccc2)c2sc(=O)[nH]c2SC31 (stereo not drawn)	0%	1%	6%
Cn1c(N)c(C(=O)CSc2nn(-c3ccc(F)cc3)c(=S)s2)c(=O)n(C)c1=O	16µM*	0%	0%
CC1(C)C(=O)Nc2ccccc2N1C(=O)COC(=O)c1cc(Cl)cc(Cl)c1	?	1%	14%
COC(=O)C1=C(C)NC(=O)C1(NC(=O)c1ccncc1)C(F)(F)F (stereo not drawn)	-4%	-3%	10%
Cc1ccc(S(=O)(=O)N2[C@@H](c3ccc(F)cc3)C(C(=O)O)=CC[C@H]2c2cccs2)cc1	11%	-2%	-8%
Cc1noc(C)c1COc1ccc(C(=O)N2CCN(S(=O)(=O)c3ccccc3)CC2)cc1	?	-2%	3%
COc1ccc2nc(C3CCCCC3)nc(C3CCCCC3)c2c1	-22%	4%	-15%
CCNC(=O)N(CC)C[C@H]1N[C@@](Cc2ccccc2)(C(=O)OC)[C@H]2C(=O)N(C)C(=O)[C@@H]12	-21%	5%	6%
Nc1ncnc2c1ncn2[C@@H]1O[C@H](CNCc2ccc(OCC(=O)Nc3ccccn3)cc2)[C@@H](O)[C@H]1O	-15%	-5%	-22%
OCC[C@H]1C[C@@H](O)[C@H](O)[C@@]2(Cc3ccccc3O2)O1	-15%	0%	-9%
O=C(Nc1ccc(F)cc1)C1CCN(C(=O)c2ccc([N+](=O)[O-])cc2)CC1	1%	0%	15%

# Profiles as entered above. Order of screens: 2A StopGo | SARS PLpro yeast | RE007 growth inh
# Cc1c(Cl)cccc1N1C(=O)CC(NNC(=O)c2ccc3c(c2)OCO3)C1=O (stereo not drawn) in the list: -6% | 0% | -2%
# CCC(C)Sc1cccc(-c2nc3ccc(C)cn3c2NC2CCCCC2)c1 (stereo not drawn) in the list: ? | -1% | ?
# O=C(Nc1ccc(F)cc1)C1CCN(C(=O)c2ccc([N+](=O)[O-])cc2)CC1 in the list: 1% | 0% | 15%
# OCC[C@H]1C[C@@H](O)[C@H](O)[C@@]2(Cc3ccccc3O2)O1 in the list: -15% | 0% | -9%
# Cc1ccccc1OCC(O)Cn1c(Br)nc2c1c(=O)[nH]c(=O)n2C (stereo not drawn) in the list: -30% | 1% | 2%

# A portion of the library; count on the stated rates, not on these rows.
